Bioassay records: PubChem BioAssay, National Center for Advancing Translational Sciences (NCATS)
gsp ag – qHTS for Agonist of gsp, the Etiologic Mutation Responsible for Fibrous Dysplasia/McCune-Albright Syndrome: qHTS; gsp mutant cells, cAMP HTRF, 30 min; control for the full effect not named in the record; Potency, µM (highest dose often 76.9 µM), inactives show at the top dose activation (cAMP increase), most hits filed as activators; 0.13% of 340,000 active; active = well fitted activation curve with a large enough effect; inconclusive = small, poorly fitted or top-dose-only effect, or another doubt; inactive = no such curve, though single readings can be large or run the other way; cell line not stated here;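 further: phosphodiesterase inhibitor Ro 20-1724 added with compounds to block cAMP breakdown; potency means the concentration at half of the fitted maximal effect; nearly all actives have a fitted effect of over 60% in size; about a fifth of the inactives were tested at one dose only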
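Cells in DMEM/10% FBS with G418 were pretreated with compounds in DMSO plus […] (300 uM stock) for 30 min at 37C. cAMP was measured by HTRF (cAMP-d2 plus anti-cAMP antibody-K) after 30 min at room temperature.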
Six1-Eya2 inh – qHTS Assay for Inhibitors of the Six1/Eya2 Interaction. Homeobox protein SIX1 (Homo sapiens) + Protein phosphatase EYA2 (Homo sapiens), …. AlphaScreen GST-Six1/His-Eya2 binding, biochemical; hits give low values; control for the full effect not named in the record. activity change, % (concentration not given with the values). 0.56% of 360,000 active. AID 651725, 2012; in the data active = activity change below about -65%; inconclusive = about -30% to -65%; inactive = above about -30%; further: on the % scale 0 is the no-effect control and ±100 the full control effect
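AlphaScreen with GST-Six1 and His-Eya2 (5X mix: 250 nM and 500 nM), glutathione donor and nickel acceptor beads; buffer 50 mM Tris pH 8.0, 300 mM NaCl, 1 mM TCEP; 1 h at 37 C in the dark.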
D2 potentiator – Beta-Arrestin HTS for Positive Allosteric Modulators of the Human D2 Dopamine Receptor: Potentiators | DiscoveRx D2 beta-arrestin cells, luminescence, 90 min; 100% = 57 uM dopamine signal | D(2) dopamine receptor (Homo sapiens), P14416 | 0.23% of 360,000 active | potentiation, % (no concentration beside the values); active = potentiation of 50% or more; inconclusive = 30% to 50%; inactive = 30% or less;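 further: compound concentration not given in the record; tested on top of an EC20 dose of dopamine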
Target sequence (P14416 whole entry, looked up): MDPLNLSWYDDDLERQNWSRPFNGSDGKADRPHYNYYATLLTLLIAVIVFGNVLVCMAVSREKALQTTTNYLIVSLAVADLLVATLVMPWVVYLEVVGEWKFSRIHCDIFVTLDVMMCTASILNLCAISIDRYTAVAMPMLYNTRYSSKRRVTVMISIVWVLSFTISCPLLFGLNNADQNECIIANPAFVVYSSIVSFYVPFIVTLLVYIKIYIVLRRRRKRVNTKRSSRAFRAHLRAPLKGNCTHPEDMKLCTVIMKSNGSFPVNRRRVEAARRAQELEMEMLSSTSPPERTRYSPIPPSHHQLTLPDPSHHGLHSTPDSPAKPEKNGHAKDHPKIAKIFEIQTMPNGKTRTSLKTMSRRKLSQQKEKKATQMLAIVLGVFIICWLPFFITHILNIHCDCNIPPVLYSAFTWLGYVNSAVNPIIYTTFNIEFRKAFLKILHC
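PathHunter D2 cells, attached overnight at 37 deg C, received compound in DMSO plus dopamine at EC20 (50 nM final) for 90 min at 37 deg C. Beta-arrestin recruitment was read as luminescence after 1 h with detection reagent at ambient temperature.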
D2 ag – Beta-Arrestin HTS for Positive Allosteric Modulators of the Human D2 Dopamine Receptor: Agonists; DiscoveRx PathHunter D2 beta-arrestin, luminescence, 90 min; 100% = 57 uM dopamine signal; activation, % (concentration not given with the values); 0.084% of 360,000 active; AID 624465, 2012; in the data active = activation above about 40%; inconclusive = about 15% to 40%; inactive = below about 15%; further: compound concentration not given in the record; the text of the record calls up to 30% inactive
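DiscoveRx PathHunter D2 beta-arrestin cells (2,100/well) attached overnight, then compound-stimulated 90 min at 37 C in HBSS/10 mM HEPES/0.1% Tween-20 buffer; beta-galactosidase complementation read by luminescence after 1 h at ambient temperature. Dopamine 57 uM final (EC100) as control.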
gsp antagonist – qHTS for Antagonists of gsp, the Etiologic Mutation Responsible for Fibrous Dysplasia/McCune-Albright Syndrome: qHTS; gsp-mutant cells, cAMP HTRF, 30 min; control for the full effect not named in the record; Potency, µM (titrated, usually from 76.9 µM), for inactives: at the highest dose activity change, negative = inhibition, hits mostly inhibitors; 0.4% of 340,000 active; AID 624288, 2012; active = falling curve of any shape with a large fitted effect; inconclusive = falling curve, mostly with a smaller effect; inactive = flat or rising curve; cell line not stated here;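 further: intracellular cAMP measured with PDE inhibitor Ro 20-1724 present during compound exposure; potency means the concentration at half of the fitted maximal effect; on the % scale 0 is the no-effect control and ±100 the full control effect; nearly all actives have a fitted effect of over 65% in size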
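Cells in G418 medium, seeded 16-24 h, 37C; buffer exchange to DPBS + 1 mM CaCl2, 0.5 mM MgCl2, 0.05% BSA; cpds in DMSO + […] (300 uM stock), 30 min 37C; HTRF cAMP detection.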
CtBP-E1A blk – qHTS Assay for Inhibitors of the CtBP/E1A Interaction; AlphaScreen GST-E1A/His-CtBP binding, 1536-well; hits give low values; control for the full effect not named in the record; activity change, % (no concentration beside the values); 0.49% of 340,000 active; in the data active means activity change below about -65%; inconclusive means about -30% to -65%; inactive means above about -30%; further: on the % scale 0 is the no-effect control and ±100 the full control effect; compound concentration not given in the record
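In 5 uL wells, 23 nL compound meets equimolar GST-E1A and His-CtBP (5X stock 125 nM each) for 2 h, 37 °C. Beads (5X, 50 ug/mL) then 1 h, 37 °C, dark.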
Numbers without * were called inactive; ? = inconclusive; · = not tested or not shown; [ ] = remark or other dose. Rows are unselected; any-hit rate near 1.4%.

compound,gsp antagonist,Six1-Eya2 inh,D2 potentiator,gsp ag,CtBP-E1A blk,D2 ag
COc1ccc([N+](=O)[O-])cc1NC(=O)C(C)N1CCCC1 (stereo not given),-4%,4,-24,-7%[15.4 µM],-1,-6.4
OC(c1ccc(Cl)c(Cl)c1)c1ncc(-c2ccc(C(F)(F)F)cc2)[nH]1 (stereo not given),·,-2,0,·,4,-0.2
COC(=O)Nc1nncs1,7%,-3,-12,8%,·,-3.8
CC(=O)Nc1cccc(NC(=O)C(=O)Nc2ccc3c(c2)N(C(=O)C2CC2)CCC3)c1,-9%,-17,14,-5%,2,-1.4
Cc1ccccc1NC(=O)Nc1cc(S(N)(=O)=O)ccc1C,0%,1,-20,-2%,6,-1.9
COc1ccccc1CC(=O)Nc1ccc(-c2noc(COc3ccc(Cl)c(C)c3)n2)cc1,-2%,0,-11,?,-4,-1.5
O=C(CSc1n[nH]c(-c2ccco2)n1)Nc1ccccc1F,1%,-6,-5,21%,4,-2.9
COc1cccc(NC(=O)c2oc3ccc(S(=O)(=O)N4CCOCC4)cc3c2C)c1,-12%,-14,1,0%[15.4 µM],-29,1.0
Cc1ccccc1NC1=C(Cl)C(=O)N(C2CCCCC2)C1=O,6%,11,-20,-16%,0,-1.4
COC(c1ccccc1)c1nnc(CCC(=O)N(C)CCc2ccccc2)o1 (stereo not given),5%,-5,-5,26%,3,-2.3
CC(C)c1nc(C(=O)N2CCCC(N3CCN(c4cccc(Cl)c4)CC3)C2)cs1 (stereo not given),-26%,-17,-23,14%[15.4 µM],-2,-2.6
Cc1cc(NC(=O)CCC(=O)N(CCc2ccccc2)C(C(=O)NC2CCCC2)c2ccco2)no1 (stereo not given),-13%,-22,-6,4%,-15,-4.0
Cn1nnnc1CCOCCc1nnnn1C,5%,0,-13,-26%,7,-0.4
CCO/N=C(\C)c1c(O)c2ccccc2n(C)c1=O,10%,2,5,20%[15.4 µM],?,-4.1
COc1ccc(C)cc1-n1nnnc1SCc1csc(C)n1,5%,1,-12,-7%,8,-0.4
CC(NC(=O)COc1ccccc1)C1COc2ccccc2O1 (stereo not given),-1%,2,-19,?,9,-3.5
CN(C)c1ccc(/C=C(/C(=O)c2ccc(Cl)cc2Cl)n2cncn2)cc1,-12%,-3,-16,-7%,2,-6.3
CCCCC12CN3CC(C)(CN(C1)C31C(=O)N(C)c3ccc(C)cc31)C2=O (stereo not given),11%,3,1,?,6,-1.0
CN(C(=O)c1cnc(N2CCN(c3ncccn3)CC2)c2ccccc12)c1ccc(Cl)cc1,-6%,8,-5,-1%[15.4 µM],10,-4.0
Cc1ccc(S(=O)(=O)N2CCOCC2)cc1C(=O)NCc1cccs1,15%,14,-5,-7%[15.4 µM],·,4.2
CS(=O)(=O)N(C(=O)NC(=O)NC12CC3CC(CC(C3)C1)C2)C1CCCCC1,4%,-1,-6,-2%[15.4 µM],-6,-7.5
C=CCn1c(SCn2nnc3ccccc3c2=O)nnc1C1CCCCC1,-4%,3,1,27%,1,-1.4
Cc1ccc2c(c1)N(CCC(=O)NCc1ccccn1)C(=O)CO2,3%,-7,-1,-7%,-26,-1.1
COc1cccc(N2CCN(C(=O)c3ccc(CSc4nc5ccncc5[nH]4)cc3)CC2)c1,?,-16,2,-4%,-9,8.6
O=C(NNS(=O)(=O)c1ccccc1)c1ccc(O)cc1,-7%,6,4,-89%[inhibitor],3,-1.3
Cc1cccc(CCNC(=O)C2CCC(=O)N2Cc2ccc(F)cc2)c1 (stereo not given),4%,21,-18,3%,31,-1.8
Cc1ccc(-n2c(SCCN)nnc2-c2cccc(C)c2)cc1,-7%,-2,-31,10%,-9,-14
COc1ccc2c(CC(=O)Nc3ccccc3OC)coc2c1,-5%,0,-8,-86%[inhibitor],·,3.6
COc1ccccc1CN1CC(C(=O)NCc2cc(C(C)C)no2)CCC1=O (stereo not given),-14%,6,1,-19%,0,-0.8
COc1ccc(-c2nn3c(-c4ccccc4)nnc3s2)cc1,-13%,-22,-7,5%,-26,-3.1
CCOC(=O)C1=C[C@@H](C(C)(C)C)N(S(=O)(=O)c2ccc(C)cc2)[C@H]1c1ccc(C)cc1,·,-1,-9,·,1,-4.5
COc1cccc(NC(=O)c2sc3nc4n(c(=O)c3c2C)CCC4)c1,-16%,-9,-3,9%,?,-1.7
COc1ccc(S(=O)(=O)NCC(=O)O)cc1C(=O)NC1CCCCC1,-4%,1,-11,-31%[inhibitor],-1,-6.7
CS(=O)(=O)Cc1ccc(C(=O)Nc2cccc(-c3nc4ccccc4[nH]3)c2)cc1,-11%,-4,9,-35%[15.4 µM],-15,5.9
CCN(CC)C(=O)c1[nH]cnc1C(=O)N[C@@H](C)C(=O)OC(C)(C)C,11%,5,-11,·,1,-2.7
CCN(CC)C(=S)NCCc1ccccc1,3%,0,-2,10%,-2,-0.6
Cc1ccc(CNC(=O)C2c3ccccc3C(=O)N(C)C2c2c[nH]c3ccccc23)o1 (stereo not given),1%,-16,-9,-28%,-12,-1.4
NC(CCc1ccccc1)c1csc(Nc2nccc(C(F)(F)F)n2)n1 (stereo not given),·,-11,2,·,-12,0.6
COc1ccc(NC(=O)C(c2ccccc2)c2ccccc2)c(OC)c1,-11%,1,-2,-5%[15.4 µM],-1,-6.7
COc1cccc(C2NC(=O)c3ccccc3O2)c1OC (stereo not given),3%,0,-1,-9%,4,-6.6
C[C@H](NC(=O)c1ccccc1Cl)C(=O)Nc1ccccc1F,12%,-3,-5,3%[15.4 µM],-4,-5.5
COc1ccc(C(=O)NCS(=O)(=O)c2ccc(C)cc2)cc1,2%,7,-6,-8%,-2,0.2
Cc1c(OC(=O)CNC(=O)OC(C)(C)C)ccc2c3c(c(=O)oc12)CCC3,-8%,?,-14,6%,?,-1.4
O=C(NCCc1ccc(O)c(O)c1)C1COc2ccccc2O1 (stereo not given),-2%,1,1,-2%,0,41*
C/C(N)=C(/C#N)C(=O)CSc1nn(-c2ccc(Cl)cc2)c(=S)s1,50µM*,6,-7,-9%,-11,2.8
Cc1cccc(OCC(=O)OCC(=O)N2CCCc3ccccc32)c1C,-1%,13,-2,2%,12,-2.6
Cc1ccc(-c2nc(N=Nc3ccc(O)cc3)n[nH]2)cc1,-14%,-12,0,-30%,-7,-4.6
CC(C)N(c1ccccc1)c1ccc(NC(=S)NCCN(C)C)cc1,·,-15,0,9%[15.4 µM],7,4.8
CCN(CC)S(=O)(=O)c1ccc(C)c(NC(=O)CN2C(=O)NC3(CCCC3)C2=O)c1,5%,3,-1,-7%[15.4 µM],-10,-1.7
COc1ccccc1N1CCN(C(=O)C2CCCO2)CC1 (stereo not given),6%,4,-11,-10%,43,-1.9

3 compounds out of the list above, sorted by their value in D2 potentiator, descending:
| compound | D2 potentiator |
| --- | --- |
| COc1ccc(NC(=O)C(c2ccccc2)c2ccccc2)c(OC)c1 | -2 |
| COc1ccc(C(=O)NCS(=O)(=O)c2ccc(C)cc2)cc1 | -6 |
| COc1ccccc1N1CCN(C(=O)C2CCCO2)CC1 (stereo not given) | -11 |

(more compounds)
compound,gsp antagonist,Six1-Eya2 inh,D2 potentiator,gsp ag,CtBP-E1A blk,D2 ag
O=[N+]([O-])c1ccc(C(O)CN2CCN(Cc3ccccc3)CC2)cc1 (stereo not given),9%,0,-24,22%,7,-2.4
COc1cc(CCC(=O)N2CCN(c3ccc([N+](=O)[O-])cc3)CC2)cc(OC)c1OC,?,-1,6,23%,2,1.8
Cn1ccc2c(/C=C/c3ccc(F)cc3)cc3c(c21)C1CCC3C1 (stereo not given),·,0,-1,·,-1,-3.7
Nc1ncnc2c1ncn2[C@@H]1O[C@H](C(=O)Nc2ccc(Oc3ccccc3)nc2)[C@@H](O)[C@H]1O,·,27,2,·,-7,-1.9
CCn1cc(CN2CCCC(C(=O)c3ccc(-c4ccccc4)c(F)c3)C2)cn1 (stereo not given),4%,-12,-8,-6%[15.4 µM],-15,-0.6
O=C(COc1ccc(Br)cc1)N(CCO)CCO,-12%,-3,-3,-3%[15.4 µM],-16,-0.6
COc1ccccc1N=CC1=C(O)CC(c2ccccc2)CC1=O (stereo not given),8%,7,-9,-5%[15.4 µM],2,-4.6
COc1ccc(CNC(=O)CCCNC(=O)c2ccc(Cl)cc2)cc1OC,0%,-3,-13,-21%,-12,-0.9
COc1cccc2c1C(=O)c1c(O)c3c(c(O)c1C2=O)C[C@@](O)(C(=O)CO)C[C@@H]3OC1CC(N)C(O)C(C)O1 (stereo not given in full),-22%,-26,19,?,?,8.9
c1ccc(OCCn2c(-c3ccco3)nc3ccccc32)cc1,-18%,-10,-10,3%,-6,0.0
CN(C)CCCNS(=O)(=O)c1ccc(NC2CCCCCC2)c([N+](=O)[O-])c1,4%,-17,-5,-14%,-15,-2.7
CCc1cc(C(=O)Nc2nc(-c3ccccn3)cs2)sc1C,-1%,?,-2,-37%[inhibitor],-67*,0.1
Cc1cc(N/C=C2\CCCCC2=O)no1,-1%,0,1,0%,1,-0.6
COc1cccc(NC(=O)CN(c2cccc(C(F)(F)F)c2)S(C)(=O)=O)c1,4%,8,4,-23%,0,-1.2
Cc1ccc(-c2nc(CSCC(=O)NCc3cccnc3)c(C)o2)cc1,-8%,-2,1,-7%,-14,1.4
O=C(CSc1nnc(SCc2ccccc2)s1)N/N=C/c1c[nH]c2ccccc12,10%,-2,1,-9%[15.4 µM],-4,-0.9
Cc1[nH]c2ccccc2c1C(=O)CSc1ccccc1,-8%,3,-12,5%,-3,-0.8
Cc1ccc2nc(NC(=O)CC3Oc4ccccc4NC3=O)sc2c1 (stereo not given),8%,4,-7,?,7,-3.4
COc1ccc(S(=O)(=O)N2CCN(CC(O)CN3CCOCC3)CC2)cc1 (stereo not given),-4%,2,-3,?,·,-3.8
Cc1cccc(Nc2c3c(nc4ncnn24)CCC3)c1,-2%,2,-8,-6%,·,-5.5
